# CSC inhib: blocks cancer stem cells. cancer stem cell-like cells viability, luminescence. inhibition, % at 7.5 µM. 300,000 tested, 1.1% active;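 active = mean at 75% or more and at least half the replicates too; inconclusive = mean and replicates disagree; tested in HMLE shEcad cells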;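 note: 0% = median of negative and 100% = median of positive control wells; the first replicate is given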
# Yeast UUG start: yeast start codon fidelity modulation; 350,000 tested, 0.13% active; AID 602363; activity score, % at 18.7 µM; S. cerevisiae UUG-firefly luciferase reporter, luminescence/redox ratio;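 active = replicate mean at a twofold rise or more, about +100% in these data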;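 note: firefly luciferase made from a UUG start codon reports start codon fidelity; reporter light over untreated wells divided by growth signal over untreated wells; some hits fall short of that in this replicate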
# Env fusion inh: HIV envelope-mediated fusion inhibition; AID 651610; 360,000 tested, 1.1% active; inhibition, % at 12.3 µM; HeLa-JRFL Env/CEM21 cell fusion, luciferase;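 active = mean replicate inhibition score of at least 50 and every replicate individually at or above 50; inconclusive = only one of the two criteria met; inactive = mean below 50 and not all replicates reaching 50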;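 note: 0% = plate neutral controls and 100% = maraviroc near 300 nM; one replicate is shown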
# PABP FP inh: PABP-poly(A) binding inhibition; P11940; PABP-poly(A) RNA binding, fluorescence polarization; inhibition, % at 35 µM; 290,000 tested, 1% active;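 active = 50% or more with normal probe brightness, or confirmed in later tests; inconclusive = above 50% with abnormal brightness, or retests that disagree; inactive = below 50% or failed in later tests; about a fifth of its hits are not listed in these tables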;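 note: calls also rest on retests at 20 µM and on dose response follow-up; controls were probe without protein and protein plus probe with vehicle; some compounds called inactive have numbers as strong as hits; many hits fall short of the cut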
# Target sequence (P11940 whole entry, looked up): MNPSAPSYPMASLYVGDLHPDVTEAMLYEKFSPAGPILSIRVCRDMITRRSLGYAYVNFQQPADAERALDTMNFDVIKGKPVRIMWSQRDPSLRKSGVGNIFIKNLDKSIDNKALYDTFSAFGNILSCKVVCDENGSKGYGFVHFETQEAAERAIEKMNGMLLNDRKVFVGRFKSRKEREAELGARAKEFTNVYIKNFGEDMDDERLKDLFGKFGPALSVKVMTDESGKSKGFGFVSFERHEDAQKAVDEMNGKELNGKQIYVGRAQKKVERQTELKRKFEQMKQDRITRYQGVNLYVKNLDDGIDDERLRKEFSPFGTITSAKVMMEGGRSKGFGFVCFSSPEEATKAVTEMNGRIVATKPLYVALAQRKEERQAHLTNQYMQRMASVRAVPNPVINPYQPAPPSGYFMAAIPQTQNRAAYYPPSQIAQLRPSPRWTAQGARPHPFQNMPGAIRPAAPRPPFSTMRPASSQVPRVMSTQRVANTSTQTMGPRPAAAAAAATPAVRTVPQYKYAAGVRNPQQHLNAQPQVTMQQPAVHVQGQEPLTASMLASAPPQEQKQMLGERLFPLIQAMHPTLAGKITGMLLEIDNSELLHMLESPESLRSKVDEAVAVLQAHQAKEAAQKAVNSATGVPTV
# Rce1 inh: blocks yeast Ras-converting enzyme. calls only. AID 2563. yeast membranes, quenched prenylated peptide cleavage fluorescence. 290,000 tested, 0.27% active. Q03530;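 active = fall in fluorescence gain of 50% or more versus controls, with final raw signal at or below 3038400; inconclusive = same 50% fall but final raw signal above 3038400; inactive = fall in fluorescence gain under 50%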;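 note: plate controls were neutral control wells for no effect and wells lacking membranes for full effect; tested at 10 µM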
# eIF4H FP inh: inhibitors of RNA binding by human eIF4H; inhibition, % at 35 µM; 290,000 tested, 0.94% active; AID 2012; eIF4H fluorescence polarization binding assay; Q15056;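 active = 50% or more with normal probe brightness, or confirmed in later tests; inconclusive = above 50% with abnormal brightness, or retests that disagree; inactive = below 50% or failed in later tests; about a fifth of its hits are not listed in these tables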;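 note: calls also rest on retests at 20 µM and on dose response follow-up; 0% = protein and probe with vehicle and 100% = probe without protein; strong numbers were not always called active; many hits fall short of the cut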
# MT1-MMP act inh: inhibitors of human MT1-MMP activation. AID 651647. HT1080 RFP-PRO-GFP cells, GFP/RFP ratio fluorescence, overnight; percent of plate control window, DMSO zero. 360,000 tested, 0.061% active. GFP/RFP ratio change, % at 20 µM;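 active = GFP/RFP ratio change of at least 30% with cell ATP level not reduced by more than half and red fluorescence within 50% of control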; note: strong numbers were not always called active
#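 system = RFP-PRO-GFP reporter HT1080 cells | dosing = 20 µM single dose, 1% DMSO | timing = overnight cell settling, then overnight compound exposure, 37 °C, 5% CO2 | read-out basis = GFP/RFP fluorescence ratio | controls = DMSO and RFP-L50D-GFP cell wells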
# eIF4H FP inh retest: second read-out of eIF4H FP inh, no call of its own (marks repeat the call); inhibition, %; compound at 20 µM; confirmation average;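 mean of two retest wells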
# PABP FP inh retest: second read-out of PABP FP inh, no call of its own (marks repeat the call); inhibition, %; compound at 20 µM; confirmation repeats;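 mean of two retest wells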
# MT1-MMP act inh RFP: further read-out of MT1-MMP act inh, marked with its call; RFP signal change, %; measured here: RFP expression control read;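 0 = vehicle wells; hits needed this value within 50% of zero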
# * hit, by the source's call; i = inactive; ? = inconclusive; nt = no result given. An excerpt; rates above refer to the full screens.
SMILES,CSC inhib,Yeast UUG start,Env fusion inh,PABP FP inh,Rce1 inh,eIF4H FP inh,MT1-MMP act inh,MT1-MMP act inh RFP,others
CC1=N/C(=C\c2ccc([N+](=O)[O-])cc2)C(=O)N1c1cc(Cl)ccc1C,20,-15,-34,-10,i,-9,2,2,
O=C(COC(=O)/C=C/c1cccc(Cl)c1)Nc1ccc2[nH]c(=O)[nH]c2c1,2,nt,nt,nt,i,nt,-1,5,
O=C(c1ccccn1)c1conc1C(=O)c1ccc(Br)cc1,-6,-3,-5,-7,i,-6,-3,5,
O=S(=O)(NC(=S)NC1CCCCC1)c1ccccc1,nt,nt,5,-9,i,-1,2,5,
Cc1ccc(-c2noc(CN(C(=O)Cc3ccccc3)C(C)C)n2)cc1,-4,nt,39,-5,i,-4,-3,-4,
CCC(=O)c1ccccc1OCCCCn1cncn1,-6,-13,11,-6,i,2,2,2,
O=C(COc1ccc(S(=O)(=O)NC2CCCC2)cc1)N1CCCCCC1,-10,-19,nt,2,i,5,6,2,
CC(=O)c1cnc(-c2cccc(Cl)c2)s1,2,-12,-4,-10,i,1,3,3,
O=C(NCc1ccccc1F)C1CCCN1C(=O)Nc1cccc(F)c1 (stereo unspecified),-9,-4,-6,-7,i,-1,-5,-1,
CNC(=O)[C@H]1O[C@@H](n2cnc3c(NCc4cccc(I)c4)ncnc32)[C@H](O)[C@@H]1O,-13,-27,6,nt,nt,nt,4,-4,
CN(C)c1ccc(C(CNS(=O)(=O)c2ccc([N+](=O)[O-])cc2)N2CCOCC2)cc1 (stereo unspecified),-5,18,9,nt,i,nt,3,0,
COc1ccc(CNc2nc(-c3ccccc3)nn2C(=O)c2ccc([N+](=O)[O-])cc2)cc1,-19,-11,-20,-2,i,8,-3,-4,
C/C(=N\NC(=O)c1c(C)nc2ccccn12)c1ccc(O)cc1O,4,-22,23,4,i,-17,-11,-6,
Cc1ccc(NC(=O)C(=O)NCC2CCCN2S(=O)(=O)c2cccs2)c(C)c1 (stereo unspecified),-17,-10,12,nt,i,nt,-3,-4,
CCCc1[nH]nc2c1C(c1cccc(OC(=O)c3ccco3)c1)C(C#N)=C(N)O2 (stereo unspecified),nt,nt,nt,27,i,-2,9,5,
COc1ccc(-c2n[nH]c3c2CN(C(=O)c2ccc(OC)c(OC)c2)CC3)cc1,41,-10,29,6,i,-7,-3,-13,
COc1ccccc1NC(=O)c1ccc2nc(-c3ccccc3)c(-c3ccccc3)nc2c1,3,-11,-21,2,i,-7,-2,-8,
O=C(c1cc(S(=O)(=O)N2CCCCC2)c(Cl)cc1N1CCOCC1)N1CCOCC1,-19,-15,nt,3,i,-12,-4,0,
CCN(c1ccc(NC(=O)c2ccc(Cl)nc2)cc1)C(C)C,7,nt,-11,-4,nt,-2,3,16,
COc1ccc(NC(=O)CC(NC(C)c2ccccc2)C(=O)O)cc1 (stereo unspecified),26,3,-6,17,i,-4,2,4,

# Next part (3 carried over from the part before).
SMILES,CSC inhib,Yeast UUG start,Env fusion inh,PABP FP inh,Rce1 inh,eIF4H FP inh,MT1-MMP act inh,MT1-MMP act inh RFP,others
O=C(c1cc(S(=O)(=O)N2CCCCC2)c(Cl)cc1N1CCOCC1)N1CCOCC1,-19,-15,nt,3,i,-12,-4,0,
CCN(c1ccc(NC(=O)c2ccc(Cl)nc2)cc1)C(C)C,7,nt,-11,-4,nt,-2,3,16,
COc1ccc(NC(=O)CC(NC(C)c2ccccc2)C(=O)O)cc1 (stereo unspecified),26,3,-6,17,i,-4,2,4,
COc1cc(CNc2ncnc3c2ncn3[C@H]2CN(Cc3ccc(-c4ccccc4)cc3)C[C@@H](CO)O2)cc(OC)c1OC,nt,-6,51,nt,nt,nt,6,-29,
CC(C)(C)NC(=O)c1ccccc1NC(=O)C1CC(=O)N(C2CCCCC2)C1 (stereo unspecified),nt,-7,-1,-4,i,1,3,2,
O=c1[nH]c(-c2ccccc2F)nc2c1sc(=S)n2Cc1ccccc1,52,nt,?,-2,i,-1,1,4,
CCn1ccnc1CN1CCN(CCC(C)C)C(CCO)C1 (stereo unspecified),-10,nt,-13,-7,i,-6,2,5,
CCOc1ccc(OCC)c(NC(=O)CN(c2ccc(C)cc2)S(=O)(=O)c2c(C)noc2C)c1,nt,-8,nt,-1,i,-4,-14,-19,
CCOC(=O)c1c(C)[nH]c(C(=O)OCC(=O)N2CCCC2=O)c1C,-6,-15,-15,nt,i,nt,0,-2,
COCC(=O)N1CCCC(C)(C(=O)Nc2cccc(Oc3ccccc3)c2)C1 (stereo unspecified),nt,-12,1,nt,nt,nt,1,1,
CCCNC(=O)c1ccc2c(=O)c(O)c(-c3ccc(Cl)c([N+](=O)[O-])c3)[nH]c2c1,-16,-33,13,-1,i,7,20,2,
CC(C)C[C@H]1CN([C@@H](CC(C)C)CN2CCC[C@@H]2CN2C(=O)C(=O)NC[C@@H]2Cc2ccccc2)C(=O)C(=O)N1CC1CCCCC1,nt,-6,-18,nt,nt,nt,0,-2,
Cc1cccc(C)c1NC(=O)Cn1nnc(-c2ccc(N3CCOCC3)cc2)n1,nt,-6,13,-5,i,6,14,4,
O=C(NCc1ccccc1)c1onc(CSc2ccc(F)cc2)c1C(=O)NCCCN1CCOCC1,4,10,13,4,i,1,-1,-5,
Cn1cccc1/C=C1\SC(=S)N(CC(=O)O)C1=O,-5,10,0,2,nt,?,-2,7,
O=C(Nc1ccc([N+](=O)[O-])cc1)c1ccc(S(=O)(=O)N2CCCC2)cc1,0,-6,-5,9,i,5,1,-5,
Cn1c(=O)oc2ccc(C(=O)CSc3nnnn3-c3ccccc3)cc21,-9,-9,25,-5,i,3,-2,0,
Cc1noc(NC(=O)c2ccccc2)c1C#N,-6,-18,nt,-4,i,-3,-1,4,
c1ccc(CCC2CCCCN2Cc2nc(-c3ccc4c(c3)OCO4)no2)nc1 (stereo unspecified),7,-5,0,-6,i,-4,-6,-8,
CCOC(=O)C(NC(=O)c1ccccc1)(N1CCCC1=O)C(F)(F)F (stereo unspecified),-10,-11,nt,4,i,-7,-3,-2,
O=C1c2ccccc2NC(c2ccccc2)N1NS(=O)(=O)c1ccccc1 (stereo unspecified),0,nt,4,-17,nt,-8,4,5,
O=C(Cc1cccs1)Nc1cc(SCCO)cc([N+](=O)[O-])c1,7,nt,nt,-1,i,-5,3,-3,
CCCOc1ccc(NC(=O)CC2C(=O)N(CC)C(=S)N2CCCN2CCN(Cc3ccccc3)CC2)cc1 (stereo unspecified),25,-14,-4,-10,i,-4,-13,-10,
COc1ccc(C2=NOC3(CC(=O)N(c4ccc5ccccc5c4)C3=O)C2)c(OC)c1 (stereo unspecified),3,nt,nt,12,i,54,3,4,eIF4H FP inh retest=26;PABP FP inh retest=7
Cc1ccc(Oc2nc3ccccn3c(=O)c2/C=C(\C#N)C(=O)Nc2c(C)n(C)n(-c3ccccc3)c2=O)cc1,-3,nt,5,-3,i,-1,-1,-2,
O=C(Nc1ccccc1)Nc1cc([N+](=O)[O-])ccc1F,-5,-1,8,4,i,9,2,0,
O=C(CCC(=O)N1CCN(C2CCCCC2)CC1)Nc1nnc(C(F)(F)F)s1,4,-25,nt,-6,i,7,-3,-4,
CCN(CC(=O)NC(C)C)C(=O)[C@H](C)NC(=O)c1ccc(Br)cc1,0,-14,-5,-8,i,-2,1,-1,
CCCCNC(=O)COC(=O)c1cc(F)c(F)cc1Cl,nt,-18,nt,-5,i,-6,4,0,
CSc1ccccc1NC(=O)COC(=O)c1cnc(C)cn1,0,-16,11,nt,nt,nt,1,-1,
COC(=O)C/C=N/N=C1/NC(=O)/C(=C/C(=O)O)S1,-12,nt,0,11,i,39,-3,0,
Cc1oc2ccc(OCc3ccc(Br)cc3)cc2c1C(=O)O,10,-22,-5,10,i,0,-4,0,
CCN(CC)S(=O)(=O)c1cccc(C(=O)NC(C(=O)NCCc2ccccn2)C(C)C)c1 (stereo unspecified),-15,1,22,nt,nt,nt,-3,-4,
Cn1c(N)c(C(=O)COC(=O)c2ccc3ccccc3c2)c(=O)n(C)c1=O,-13,-4,26,nt,nt,nt,6,-2,
CON=C1CCN(c2ncc(C(F)(F)F)cc2Cl)CC1,-3,3,-7,-2,i,-5,-5,-1,
c1ccc2c(CN3CCOCC3)csc2c1,-10,-9,nt,-4,i,-4,2,6,
N#Cc1ccc(NC(=O)CN2C(=O)NC(Cc3ccccc3)C2=O)cc1 (stereo unspecified),14,-2,20,-9,i,-1,-3,-3,
CCCn1c(SCC(=O)Nc2ccc(NC(C)=O)cc2)nc2c1c(=O)n(C)c(=O)n2C,nt,-3,-3,-3,i,-3,4,4,
CC1CCN(C(=O)c2ncn3c2c(=O)[nH]c2cccnc23)CC1,nt,18,-36,nt,nt,nt,5,3,
CC1(C)CC(=O)C2=C(C1)N(N1CCOCC1)C(N)=C(C#N)C2c1cccs1 (stereo unspecified),-6,nt,5,-4,i,98,-1,2,eIF4H FP inh retest=-10;PABP FP inh retest=28
O=C(N=C1SC2CS(=O)(=O)CC2N1c1ccccc1)C1CCCCC1 (stereo unspecified),17,-24,9,2,i,-12,-6,-2,
Cc1ccc(C(CNS(=O)(=O)c2ccc(Br)cc2)N2CCN(C)CC2)cc1 (stereo unspecified),1,15,-10,nt,i,nt,-4,-2,

# In the list so far, these contain fluorine.
SMILES,CSC inhib,Yeast UUG start,Env fusion inh,PABP FP inh,Rce1 inh,eIF4H FP inh,MT1-MMP act inh,MT1-MMP act inh RFP,others
O=C(NCc1ccccc1F)C1CCCN1C(=O)Nc1cccc(F)c1 (stereo unspecified),-9,-4,-6,-7,i,-1,-5,-1,
O=c1[nH]c(-c2ccccc2F)nc2c1sc(=S)n2Cc1ccccc1,52,nt,?,-2,i,-1,1,4,
O=C(NCc1ccccc1)c1onc(CSc2ccc(F)cc2)c1C(=O)NCCCN1CCOCC1,4,10,13,4,i,1,-1,-5,
CCOC(=O)C(NC(=O)c1ccccc1)(N1CCCC1=O)C(F)(F)F (stereo unspecified),-10,-11,nt,4,i,-7,-3,-2,
O=C(Nc1ccccc1)Nc1cc([N+](=O)[O-])ccc1F,-5,-1,8,4,i,9,2,0,
O=C(CCC(=O)N1CCN(C2CCCCC2)CC1)Nc1nnc(C(F)(F)F)s1,4,-25,nt,-6,i,7,-3,-4,
CCCCNC(=O)COC(=O)c1cc(F)c(F)cc1Cl,nt,-18,nt,-5,i,-6,4,0,
CON=C1CCN(c2ncc(C(F)(F)F)cc2Cl)CC1,-3,3,-7,-2,i,-5,-5,-1,
